LASV entry inh – Lassa virus entry inhibition; Lassa virus pseudotype entry inhibition, cell reporter; control for the full effect not named in the record; Potency, µM (titrated, usually from 37.9 µM), without a hit: at the top dose activity change, negative = inhibition, actives largely listed as inhibitors; 1.2% of 300,000 active; AID 540256; active means well fitted inhibition curve with a large enough effect; inconclusive means small, poorly fitted or top-dose-only effect, or effect the other way; inactive means flat fitted curve, though single readings scatter; tested in HEK293 cells; also: % is scaled to controls: 0 for no effect and ±100 for the full control effect; nearly all actives have a fitted effect of over 50% in size; luciferase read-out
RE007 growth inh – less growth of the S. pombe RE007 Vpr strain; S. pombe RE007 Vpr strain, BacTiter-Glo ATP luminescence, 24 h; control for the full effect not named in the record; Potency, µM (highest dose often 92.2 µM), without a hit: at the top dose activity change, negative = less growth; 0.21% of 360,000 active; active = well fitted falling curve with a large enough effect; inconclusive = small, poorly fitted or top-dose-only effect; inactive = no such curve, though single readings can be large or run the other way;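 also: % is scaled to controls: 0 for no effect and ±100 for the full control effect; nearly all actives have a fitted effect of over 50% in size; the assay follows cell death caused by Vpr and the record does not say whether a fall means rescue or toxicity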
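Fission yeast strain RE007, carrying one chromosomally integrated HIV-1 vpr copy, was seeded at OD 0.01 in PMG+AL medium with 23 nL pinned compound. After 24 h at 30 °C and 99% humidity, viability was read by BacTiter-Glo luminescence.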
Marburg entry inh – blocks Marburg virus binding to or entry into cells | Potency, µM (series often up to 37.8 µM), for inactives: top-dose activity change, negative = inhibition, actives largely listed as inhibitors | Marburg virus pseudotyped entry inhibition, cell reporter; control for the full effect not named in the record; about a third of the inactives were read at about 46 µM | 1.8% of 300,000 active | AID 540276; active = well fitted inhibition curve with a large enough effect; inconclusive = small, poorly fitted or top-dose-only effect, or effect the other way; inactive = flat fitted curve, though single readings scatter; tested in HEK293 cells; about a fifth of its hits are not listed in these tables; also: % is scaled to controls: 0 for no effect and ±100 for the full control effect; luciferase read-out
NS1 function inh – influenza NS1 inhibition; S. cerevisiae slowed by influenza A NS1, growth recovery by OD600; Potency, µM (doses to about 46.1 µM), without a hit: at the highest dose activity, positive = more growth; 0.4% of 270,000 active; AID 2326; active means well fitted rising curve with a large enough effect; inconclusive means small, poorly fitted or top-dose-only effect; inactive means no such curve, though single readings can be large or run the other way; also: nearly all actives have a fitted effect of over 50% in size
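OD600 was taken as the measure of yeast growth restored by compound in an NS1-expressing S. cerevisiae strain. Cells had been washed out of glucose medium and diluted 1:100 into galactose -URA medium, pH 6.0.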
SARS PLP yeast – blocks SARS-CoV papain-like protease in a yeast assay | 0.19% of 330,000 active | S. cerevisiae expressing SARS-CoV PLpro, growth rescue; control for the full effect not named in the record | Potency, µM (doses to about 32.9 µM), inactives show top-dose activity, positive = growth rescue | AID 485353; active means well fitted rising curve with a large enough effect; inconclusive means small, poorly fitted or top-dose-only effect; inactive means no such curve, though single readings can be large or run the other way; also: 0% is about no effect; nearly all actives have a fitted effect of over 55% in size; growth read by luminescence after 48 h
Cruzain Triton – inhibitors of Trypanosoma cruzi cruzain with detergent. purified cruzain, Z-FR-AMC fluorescence, 0.01% Triton. 0.43% of 200,000 active. P25779. AID 1478. Potency, µM, for inactives: max response, negative = inhibition, hits mostly inhibitors;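 also: plate controls were neutral wells for no effect and buffer without enzyme for full effect; nearly all actives have a fitted effect of over 40% in size; top concentration of the series not given in the record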
Target sequence (P25779 123-467 limits assumed): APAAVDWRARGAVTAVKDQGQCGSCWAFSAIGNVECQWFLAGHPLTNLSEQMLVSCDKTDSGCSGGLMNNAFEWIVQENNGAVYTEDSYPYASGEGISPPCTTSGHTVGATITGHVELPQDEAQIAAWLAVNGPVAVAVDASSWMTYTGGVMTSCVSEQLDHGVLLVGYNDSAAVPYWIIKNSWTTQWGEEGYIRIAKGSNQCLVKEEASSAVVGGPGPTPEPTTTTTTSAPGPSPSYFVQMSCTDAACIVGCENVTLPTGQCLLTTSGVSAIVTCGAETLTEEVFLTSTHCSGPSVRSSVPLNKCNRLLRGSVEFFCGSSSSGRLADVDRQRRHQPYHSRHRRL
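Cysteine protease activity tested under reducing, mildly acidic conditions (100 mM sodium acetate pH 5.5, 5 mM DTT) plus 0.01% Triton X-100. Cruzain 1.5 nM; substrate Z-FR-AMC 2 uM; 15 min compound preincubation at room temperature.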
StopGo reporter – lowers the luciferase signal of an FMDV 2A StopGo reporter | AID 1159524 | Potency, µM (doses to about 57.9 µM), without a hit: at the top dose signal change, negative = less light | human cells with a luciferase reporter of 2A StopGo recoding; control for the full effect not named in the record | 1.2% of 410,000 active; active = well fitted falling curve with a large enough effect; inconclusive = small, poorly fitted or top-dose-only effect; inactive = no such curve, though single readings can be large or run the other way; tested in HEK293T cells; also: % is scaled to controls: 0 for no effect and ±100 for the full control effect; nearly all actives have a fitted effect of over 45% in size; luciferase light after 4 h
Cruzain inh noDet – cruzain (T. cruzi) inhibition without detergent. P25779. purified cruzain, Z-FR-AMC fluorescence, no detergent. Potency, µM, for inactives: max response, negative = inhibition, usual class: inhibitors. 2.3% of 200,000 active. AID 1476;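 also: plate controls were enzyme without inhibitor for no effect and buffer without enzyme for full effect; nearly all actives have a fitted effect of over 40% in size; top concentration of the series not given in the record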
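Purified cruzain at 1.5 nM, pre-incubated 15 min with compound at room temperature in 100 mM sodium acetate pH 5.5, 5 mM DTT, 0.00005% Triton X-100. Reaction started with 2 uM Z-FR-AMC; AMC fluorescence increase over 60 s gives rate.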
The depositor's hits bear a star; ? = inconclusive; . = not tested or not shown; & = joins results of further samples; [ ] = remark or other dose. Unless noted, calls follow the shape of the dose curve; as a rule, active = well fitted curve in the direction sought with a large enough effect; inconclusive = small, poorly fitted or top-dose-only effect, or another doubt; inactive = no such curve, though single readings can be large; an effect the other way counts as inactive or inconclusive. Potency is read from the fitted curve at half-maximal effect.

Structure	LASV entry inh	RE007 growth inh	Marburg entry inh	NS1 function inh	SARS PLP yeast	Cruzain Triton	StopGo reporter	Cruzain inh noDet
CC(Oc1ccc(F)cc1F)C(=O)/C=C/N(C)C (configuration not stated)	-7%[14.3 µM]	14%	1%	5%	-13%	-1.0%	7%	4%
O=c1[nH]c(=O)n(Cc2ccc(F)cc2)c(O)c1C=NCCCN1CCOCC1	0%	-1%	5%	-20%	1%	1.9%	-25%	-12%
O=C(O)CCc1nn2c3ccccc3n(Cc3ccccc3F)c2nc1=O	-14%	3%	2%[14.2 µM]	.	1%	.	-9%	.
CC1CCN(S(=O)(=O)c2cccc(C(=O)N(C)C3(C)CCS(=O)(=O)C3)c2)CC1 (configuration not stated)	?	11%	.	13%	3%	-0.9%	-26%&7%	-1%
CCOC(=O)c1[nH]c2ccc(OCC)cc2c1NC(=O)CN1CCN(c2ccccn2)CC1	?	-6%	?	-64%	-1%	-10.0%	-18%	3%
Cc1noc(C)c1S(=O)(=O)N1CCN(c2ccccc2)CC1	.	2%	.	-21%	-8%	3.9%	-15%	16%
CNC(=O)c1cc2c(s1)-c1ccccc1CC2	4%	2%	9%	-31%	-4%	.	53%[activator]	.
O=S(=O)(c1ccccc1)N1N=C(c2ccc(Cl)cc2)CC1c1ccco1 (configuration not stated)	?	-8%	10µM*	.	-1%	.	0%	.
O=C(Cn1cnc2ccccc2c1=O)Nc1cccc(S(=O)(=O)N2CCCCC2)c1	.	0%	.	5%	0%	.	-16%	.
Cc1cccc(C)c1Nc1c(-c2ccccc2O)nc2ncccn12	-4%	0%	-3%&-12%[46.1 µM]	0%	0%	-1.2%	-17%&-26%	2%
CCCCCCn1nc(C(=O)OCC(=O)NC2CCS(=O)(=O)C2)c2ccccc2c1=O (configuration not stated)	.	-2%	5%[46.1 µM]	.	0%	.	4%	.
Cc1cccc(C)c1NC(=S)NNc1ncc(C(F)(F)F)cc1Cl	9%	9%	?	1%	19%	0.5%	-22%	9%
Cc1cc(C)c(S(=O)(=O)N2CCCCCC2)cc1Br	-6%	2%	-15%[46.1 µM]	-36%	-1%	.	20%	.
Cc1cccc(C(O)(C(=O)O)c2ccccc2)c1 (configuration not stated)	10%[46.1 µM]	4%	3%	.	.	.	-17%	.
Cc1ccc(SCC(=O)NCc2ccccc2C)cc1	.	-3%	.	-16%	-1%	.	22%	.
CCCc1cc(=O)[nH]c(/N=C(\N)Nc2ccccc2)n1	3%	-1%	12%	-4%	1%	0.3%	22%	-18%
Cc1ccc(CN2CCSc3ccc(C(=O)N4CCOCC4)cc32)cc1	.	0%	.	-4%	-1%	.	5%	.
COc1ccc(C2(c3ccc(OC)cc3)NC(=O)N(CC(=O)N(C)C3CCC(C)CC3)C2=O)cc1 (configuration not stated)	-27%	12%	?	.	4%	.	?	.
COC(=O)c1cccc(NC(=O)c2ccc3c(c2)C(=O)N(Cc2cccnc2)C3=O)c1	.	10%	.	-22%	-2%	.	-15%	.
O=C(CN1C(=O)c2ccccc2C1=O)Nc1sc2c(c1C(=O)NCc1ccco1)CCCC2	1%	19%	7%[46.1 µM]	9%	-12%	1.4%	-5%	?
Cc1ccc(C(=O)OCC(=O)Nc2cccc(S(=O)(=O)NC3=NCCCCC3)c2)c(C)c1	-22%	-2%	-5%	.	-3%	.	-13%	.
COCCNC(=O)c1ccc2c(=O)n(CCc3ccccc3)c(SCC(=O)CC(=O)OC)nc2c1	-21%[46.1 µM]	.	.	.	.	-9.3%	-26%	?
CC12CN3CC(C)(CN(C1)C3c1cccnc1)C2=O (configuration not stated)	16%	-8%	25%	3%	0%	5.4%	-10%	6%
Cn1c(SCC(=O)Nc2ccccc2)nc2c([nH]c3ccccc32)c1=O	.	2%	.	-5%	-1%	.	24%	.
COc1ccccc1CNS(=O)(=O)c1cc(C(=O)NCc2ccccn2)c(Cl)cc1Cl	-16%	-8%	-10%[46.1 µM]	.	6%	.	4%	.

Full records, quoted from the list. Order of screens: LASV entry inh, RE007 growth inh, Marburg entry inh, NS1 function inh, SARS PLP yeast, Cruzain Triton, StopGo reporter, Cruzain inh noDet
Record of `CCCCCCn1nc(C(=O)OCC(=O)NC2CCS(=O)(=O)C2)c2ccccc2c1=O` (configuration not stated) → ., -2%, 5%[46.1 µM], ., 0%, ., 4%, .
Record of `Cc1ccc(C(=O)OCC(=O)Nc2cccc(S(=O)(=O)NC3=NCCCCC3)c2)c(C)c1` → -22%, -2%, -5%, ., -3%, ., -13%, .
Record of `Cc1cccc(C(O)(C(=O)O)c2ccccc2)c1` (configuration not stated) → 10%[46.1 µM], 4%, 3%, ., ., ., -17%, .
Record of `CC12CN3CC(C)(CN(C1)C3c1cccnc1)C2=O` (configuration not stated) → 16%, -8%, 25%, 3%, 0%, 5.4%, -10%, 6%
Record of `COc1ccccc1CNS(=O)(=O)c1cc(C(=O)NCc2ccccn2)c(Cl)cc1Cl` → -16%, -8%, -10%[46.1 µM], ., 6%, ., 4%, .

Back to the main list, repeating the 2 entries before the break.
Order of results: LASV entry inh | RE007 growth inh | Marburg entry inh | NS1 function inh | SARS PLP yeast | Cruzain Triton | StopGo reporter | Cruzain inh noDet
Cn1c(SCC(=O)Nc2ccccc2)nc2c([nH]c3ccccc32)c1=O
  . | 2% | . | -5% | -1% | . | 24% | .
COc1ccccc1CNS(=O)(=O)c1cc(C(=O)NCc2ccccn2)c(Cl)cc1Cl
  -16% | -8% | -10%[46.1 µM] | . | 6% | . | 4% | .
O=C(CSc1nnc(CNC(=O)c2ccco2)o1)c1ccc(Cl)cc1
  21% | -1% | 1% | -2% | -4% | 0.2% | ? | -3%
C/C(=C/C(=O)Nc1cccc(F)c1)N1CCCC1
  -1% | -11% | -2%[46.1 µM] | . | 1% | . | 2% | .
COc1ccccc1N1CCN(S(=O)(=O)c2cnc[nH]2)CC1
  . | -3% | . | 1% | -2% | 0.2% | -23% | -10%
O=[N+]([O-])c1ccc(S(=O)(=O)CC(CN2CCOCC2)N2CCOCC2)cc1 (configuration not stated)
  ? | 3% | ? | . | -1% | . | 6% | .
CCc1noc(C)c1C(=O)Nc1ncc(C)s1
  0% | -2% | 13% | -1% | -3% | 1.3% | 15% | -6%
CN1CCN(C(=O)c2cnn(-c3ccccc3)c2NC(=O)c2ccccc2F)CC1
  7% | 6% | ? | 4% | 4% | -0.6% | -15% | 5%
CCOC(=O)c1cccc(NC(=O)c2cc3c(=O)n(Cc4ccccc4)ccc3nc2C)c1
  -22%[46.1 µM] | . | . | . | . | -9.1% | ? | ?
COc1ccc(CNC(=O)CCc2c(C)nc3ncnn3c2C)cc1
  -7% | -7% | 2% | 5µM* | 6% | 3.2% | -18% | 10%
COc1ccc(-c2[nH]c(-c3ccc(SC)cc3)nc2SCC(=O)Nc2nccs2)cc1
  -16% | 7% | ? | 11% | -14% | -2.5% | -11% | ?
Nc1nnc(SCC(=O)c2ccco2)s1
  2% | 0% | -7% | 8% | 0% | 1.9% | 13% | 1%
O=C(/C=C/c1ccccc1)Nc1cccnc1Oc1ccccc1F
  ? | 5% | ? | -11% | -3% | . | 54%[activator] | .
Cc1cc(NC(=O)C(C)SCC(=O)Nc2nnc(CC(C)C)s2)no1 (configuration not stated)
  16% | 1% | 10% | . | 1% | . | 9% | .
O=C(NCc1ccccc1Cl)C(=O)NCC(c1cccs1)S(=O)(=O)c1ccccc1 (configuration not stated)
  -51%[46.1 µM] | . | . | . | . | -6.6% | -15% | -15%
Cc1cc(C)cc(CC2CC(=O)N(c3cc(C)on3)C2=O)c1 (configuration not stated)
  -5% | -2% | -11% | 1% | 3% | -3.2% | -9% | 4%
O=C(CCS(=O)(=O)Cc1ccccc1)Nc1ncc([N+](=O)[O-])s1
  8%[46.1 µM] | 14% | ? | -2% | 1% | . | 42%[activator] | .
COc1ccccc1NC(=O)COc1ccc(C(F)(F)F)cc1[N+](=O)[O-]
  25% | 0% | 10% | . | . | . | 22% | .
CCCCn1c(Cc2ccccc2)n[nH]c1=S
  1% | 2% | 1% | -1% | -7% | 3.4% | -19% | -1%
COC(=O)[C@@H](NC(=O)NC1CCCCC1C)C(C)C (some centres not stated)
  6%[46.1 µM] | 8% | 10%[46.1 µM] | 2% | 0% | . | 19% | .
CCC(C)n1c(SCc2ccccc2)nc2ccsc2c1=O (configuration not stated)
  ? | 1% | ? | -23% | -13% | -5.3% | 0% | 0%
CC1(C)Cc2ccccc2-c2nc(NCCO)n(-c3ccccc3)c(=O)c21
  ? | 15% | -9%[46.1 µM] | -1% | -3% | -8.9% | -29% | ?
COc1ccc(C(=O)NNC(=O)c2ccc(C(C)(C)C)cc2)cc1
  -7%[46.1 µM] | 18% | 2%[46.1 µM] | . | 1% | . | 6% | .
CCOC(=O)C1CCN(C(=O)CN(c2ccc3c(c2)OCO3)S(C)(=O)=O)CC1
  -23% | 14% | -7% | 2% | . | 3.0% | -12% | -18%
COc1cc(OC)c(OC)cc1CN1CCN(S(=O)(=O)c2ccc(NC(C)=O)cc2)CC1
  -4% | 3% | 5%[46.1 µM] | 1% | -1% | . | -14% | .
Cc1ccc(NC(=O)c2ccc(=O)[nH]c2)cc1S(=O)(=O)N1CCCCCC1
  ? | 1% | -19% | . | -2% | . | 7% | .

Screening data (PubChem BioAssay)
